# Source: PubChem (National Center for Advancing Translational Sciences (NCATS))
# AmpC nodet inh: Promiscuous and Specific Inhibitors of AmpC Beta-Lactamase (assay without detergent). AID 585, 2007. Potency, µM (doses to about 28.7 µM), without a hit: at the top dose activity change, negative = inhibition. P00811. 71,000 tested, 1.8% active. AmpC nitrocefin hydrolysis, absorbance 480 nm, no detergent; potencies from a single point are estimates; active = falling curve, for most hits resting on a single point; inconclusive = weak or doubtful change; inactive = flat or rising curve; also: % of control where 0% means no effect; about half of the hits show no inhibition at the top dose; a quarter of the inactives give rising signals
# Target sequence (P00811 whole entry, looked up): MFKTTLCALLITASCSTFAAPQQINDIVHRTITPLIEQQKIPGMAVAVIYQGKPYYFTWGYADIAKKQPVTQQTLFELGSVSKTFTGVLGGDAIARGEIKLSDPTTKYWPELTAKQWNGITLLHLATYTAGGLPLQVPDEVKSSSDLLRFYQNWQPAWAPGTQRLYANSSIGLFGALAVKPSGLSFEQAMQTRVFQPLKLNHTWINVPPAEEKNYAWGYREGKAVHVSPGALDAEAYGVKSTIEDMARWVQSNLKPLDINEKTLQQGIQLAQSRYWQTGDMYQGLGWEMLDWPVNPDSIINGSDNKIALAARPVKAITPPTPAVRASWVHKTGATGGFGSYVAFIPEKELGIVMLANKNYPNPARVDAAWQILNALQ
#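 Enzyme, pH 7.0 phosphate. Compound titrations were pre-incubated with AmpC for 15 min at room temperature before nitrocefin (stock 800 uM) addition; product formation was recorded at 480 nm every 20 s for 4 min.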
# The depositor's hits bear a star; ? = inconclusive; [ ] = remark or other dose. Potency is read from the fitted curve at half-maximal effect. An excerpt; rates above refer to the full screens.
mol	AmpC nodet inh
O=C(c1cccc(C(=O)N2CCN(c3ccc(F)cc3)CC2)c1)N1CCN(c2ccc(F)cc2)CC1	121%
CCCCN(C)CCNC(=O)Cn1c(=O)sc2ccccc21	5%
COc1cc2nc3c(c([Si](C)(C)C(C)(C)C)c2cc1OC)Cn1c-3cccc1=O	145%
O=C(NC1CCCCC1)N(Cc1ccc(F)cc1)Cc1nc2ccccc2c(=O)[nH]1	5%
COc1ccc2cc(S(=O)(=O)N3CCN(C)CC3)ccc2c1	40%
COc1cccc(-c2nc(-c3ccccc3)no2)c1	-2%
O=C(NCC1CCCO1)C1CCN(S(=O)(=O)Cc2ccccc2)CC1 (stereo unspecified)	-6%
Cc1nnc(NC(=O)c2ccccc2F)s1	-18%
CC(C)CC(NC(=O)c1ccco1)C(=O)Nc1ccc2c(c1)OCCO2 (stereo unspecified)	17%
CC1CCc2nn(CC(=O)NC3CCCC(C)C3C)cc2C1 (stereo unspecified)	38%
CCC(=O)Nc1ccc(NC(=O)CSc2nnc(C(C)C)n2C)cc1	-15%
O=C(NCCCN1CCN(c2cccc(Cl)c2)CC1)c1cccc(N2CCCC2=O)c1	82%
COc1cc(NC(=O)C2CC2)c(C(=O)O)cc1OC	-2%
O=C(Nc1ccccc1)N1CCC(c2ccccc2)C1 (stereo unspecified)	2%
Cc1ccc(C(CC(=O)N2CCCC2)c2ccccc2)c(O)c1C (stereo unspecified)	22%
COc1ccccc1OCC(=O)NCCc1nc2ccccc2[nH]1	13%
CCOC(=O)c1oc2ccccc2c1NC(=O)COc1ccc(F)cc1	-23%
CCOC(=O)NC1(Nc2ccc(Cl)cn2)Oc2ccccc2O1	0%
COc1cc2c(=O)n(Cc3ccccc3)c(=O)n(CC(=O)C(C)(C)C)c2cc1OC	16%
O=C(Oc1cccc2c(OC(=O)N3CCOCC3)cccc12)N1CCOCC1	44%
Cn1cc(-c2nc3cnc(Oc4cccc(Cl)c4)nc3n(CCC#N)c2=O)c2ccccc21	-5%
O=c1c2ccccc2nc(N2CCN(c3ccccc3)CC2)n1Cc1ccccc1	11%
COc1ccc(CCNC(=O)C2CCN(S(=O)(=O)N3CCCCC3)CC2)cc1OC	36%
CC(C)CCn1cnc2c(c1=O)c1nc3ccccc3nc1n2Cc1ccc2c(c1)OCO2	16%
Cc1c(S(=O)(=O)N2CCN(C(=O)c3ccco3)CC2)c(=O)n(C)c(=O)n1C	-5%
CCNC(=O)[C@H](C)/C=C/C(NC(=O)OCc1ccccc1)c1ccc(C(=O)OC)cc1 (stereo partly specified)	70%
O=C(O)c1ccc(NS(=O)(=O)c2cccc3cccnc23)cc1	-3%
CC(C)[C@@H](C(=O)O)N1C(=O)c2ccccc2C1=O	-2%[5.75 µM]
Cc1cnc(NC(=O)CSc2ncc(-c3ccccc3)n2Cc2ccco2)s1	24%
CCOC(=O)C1CN(c2cc3c(cc2F)c(=O)c(C(=O)O)cn3CC)OC1C(=O)OCC (stereo unspecified)	21%
CCCn1nc(NC(=O)c2ccncc2)c2cc3ccccc3nc21	82%
Cc1noc(C)c1-c1cc(N2CCN(C)CC2)ncn1	11%
Cc1c(NC(=O)c2ccc3c(c2)OCO3)c(=O)n(-c2ccccc2)n1C	-7%
COc1ccc(N2CCN(S(=O)(=O)c3ccc(Cl)c(C(F)(F)F)c3)CC2)cc1	1%
CCn1nnc(NC(=O)C(C)Oc2ccc(Cl)cc2Cl)n1 (stereo unspecified)	32%
Clc1ccc(C2Nc3ccccc3-n3cccc32)cc1 (stereo unspecified)	-8%
CCc1c(C)c2c(C)nn(-c3ccccc3)c2[nH]c1=O	-2%
Cc1cc2cc3c(cc2nc1SCC(=O)O)OCCO3	4%
CCOc1ccc(OCC)c(NC(=O)C2CCN(S(=O)(=O)c3c(C)noc3C)CC2)c1	71%
O=C1CCC[C@H]1C(=O)Nc1ccc2ccccc2c1	-2%[5.75 µM]
COC(=O)c1c(C)n(-c2ccccc2)c2ccc(O)cc12	4%
C=CCNC(=O)C(C)N1C(=O)c2ccccc2C1=O (stereo unspecified)	2%
CCOc1cc(S(=O)(=O)NCCN2CCOCC2)c(C)cc1C	37%
CNc1ncnc(Sc2nc(N)nc3nc[nH]c23)c1[N+](=O)[O-]	-10%[5.75 µM]
COc1ccc(CCNC(=O)C2CCCN2C(=O)Nc2cccc(C(C)=O)c2)cc1OC (stereo unspecified)	2%
CCc1nnc(NC(=O)C(C)N2C(=O)C3C4C=CC(C4)C3C2=O)s1 (stereo unspecified)	14%
O=C(CSc1nc2ccccc2c(=O)n1Cc1ccc(C(=O)NC2CC2)cc1)NCc1ccco1	6%
Cc1onc(-c2ccccc2)c1C(=O)Nc1sc2c(c1C(N)=O)CCC2	49%
CCCCCn1c(CN2CCN(CCO)CC2)nc2c1c(=O)n(C)c(=O)n2C	18%
CCCc1[nH][nH]c(=O)c1C(c1ccccc1)C(C#N)C#N (stereo unspecified)	-21%
N#Cc1c2c(c(=S)n(-c3ccccc3)c1N)CCCC2	12%
O=C(COC(=O)C1CC(=O)N(C2CCCCC2)C1)c1ccc(F)cc1 (stereo unspecified)	82%
CCSc1nnc(NC(=O)c2cccs2)s1	-12%
O=C(c1coc2ccc(O)c(CN3CCOCC3)c12)C1CC1	?
C[C@@H](C(=O)NCc1ccc(S(C)(=O)=O)cc1)[C@H]1C[C@]1(C)[C@H](NC(=O)OCc1ccccc1)c1ccccc1	112%
CNC(=O)c1cc2cc(Cl)cc(OC)c2oc1=O	-5%
O=c1c(/C=N/O)c(Nc2ccccc2)nc2ccccn12	0%
COc1cc2[nH]c(=S)n(CCN3CCCCC3C)c(=O)c2cc1OC (stereo unspecified)	6%
O=C(CCN(CCO)Cc1ccccc1)Nc1ccc(Br)cc1	31%
Nc1ccccc1C(=O)O	0%

# 6 records picked at random from those above:
mol	AmpC nodet inh
Cn1cc(-c2nc3cnc(Oc4cccc(Cl)c4)nc3n(CCC#N)c2=O)c2ccccc21	-5%
CCCc1[nH][nH]c(=O)c1C(c1ccccc1)C(C#N)C#N (stereo unspecified)	-21%
CCc1c(C)c2c(C)nn(-c3ccccc3)c2[nH]c1=O	-2%
COc1cccc(-c2nc(-c3ccccc3)no2)c1	-2%
O=C(NC1CCCCC1)N(Cc1ccc(F)cc1)Cc1nc2ccccc2c(=O)[nH]1	5%
COc1ccccc1OCC(=O)NCCc1nc2ccccc2[nH]1	13%

# Going on with the list.
mol	AmpC nodet inh
O=C(NCCCN1CCOCC1)c1cc2cc(Cl)cc(Cl)c2oc1=O	4%
Nc1c(S(=O)(=O)c2cccs2)c2nc3ccccc3nc2n1Cc1cccs1	-20%
NNC(=O)Cc1cccnc1	5%[5.75 µM]
Cc1csc(Sc2nc3c(c(=O)[nH]c(=O)n3C)n2CCCc2ccccc2)n1	16µM*[single pt active]
COc1cc(C)c(Br)cc1S(=O)(=O)N1CCOCC1	22%
COCCCNc1ncnc2c1cnn2-c1ccc(C)cc1C	17%
CCOCC(=O)Nc1ccc(S(=O)(=O)NCCc2ccccc2)cc1	5%
Cc1ccc(-n2ncc3c(=O)[nH]c(SCC(=O)N4CCCc5ccccc54)nc32)cc1	36%
CCc1ccc(Cn2nnc(C(=O)NCc3ccccc3OC)c2N)cc1	11%
COCCCn1c(-c2ccsc2)nc2c1c(=O)[nH]c(=O)n2Cc1ccccc1	18%
CCOC(=O)N1CCN(c2c(N3CCN(c4cccc(C(F)(F)F)c4)CC3)c(=O)c2=O)CC1	66%
Cc1cccc(CCNC(=O)CN(C)S(=O)(=O)c2ccc3c(c2)c(=O)n(C)c(=O)n3C)c1	4µM*[single pt active]
COc1cccc(Nc2ncc3ncc(=O)n(C)c3n2)c1	14%
O=C(Cn1ncc2c(=O)oc3ccccc3c21)Nc1nc2ccccc2s1	-10%
CCn1c2ccccc2c2nnc(SCC(=O)Nc3ncccn3)nc21	-22%
COc1ccccc1NS(=O)(=O)c1ccc(Br)s1	-13%
COc1cc(/C=C\c2ccc(OC)cc2OC)cc(OC)c1	53%
CC(=O)c1ccc(Cl)c(Cl)c1Cl	-6%
CC(C)CNS(=O)(=O)c1ccc(S(=O)(=O)N2CCN(CCC#N)CC2)cc1	6%
CCCC/C=C/[C@@H](NP(=O)(c1ccccc1)c1ccccc1)c1ccccc1OC	39%
O=C1OCCC1Sc1nnc(-c2ccco2)o1 (stereo unspecified)	2%
O=C(CCC(=O)c1cccs1)OCC(=O)N1CCN(C(=O)c2ccco2)CC1	4%
COC(=O)c1cc(-c2ccc(Br)cc2)on1	4µM*[single pt active]
CCCCOc1ccc(OCCCC)c2c1NC1(N2)C(=O)N(C(C)=O)c2ccccc21	27%
CN1CCC(=C2c3ccccc3Sc3ccccc32)CC1	24%[12.8 µM]
CCOC(=O)Cn1c(=O)oc2cc(S(=O)(=O)N3CCn4c3nc3ccccc34)ccc21	23%
Cn1nnnc1SCC(=O)NCc1ccco1	-14%
Cc1cc2c(c(=O)n1Cc1ccc3c(c1)OCO3)C(c1cccnc1)C(C#N)=C(N)O2 (stereo unspecified)	7%
CC(C)c1nnc(NC(=O)CCN2C(=O)c3ccccc3C2=O)s1	2%
COc1ccccc1N1CCN(c2cc(N3CCCC3)nc(C)n2)CC1	138%
CC(C)OC(=O)c1c(N)sc2c1CCCC2	-8%
CCc1nnc2sc(-c3ccc(NC(=O)c4ccco4)cc3)nn12	29%
CN(C)c1ccc(-n2cc3c(=O)n(C)c(=O)n(C)c3c2)cc1	41%
CCOc1ccc(CN(Cc2ccco2)C(c2cccs2)c2nnnn2C(C)(C)C)cc1 (stereo unspecified)	25%
Cc1ccc2occ(CN3CCN(c4ccccc4)CC3)c(=O)c2c1	21%
CCSC1=C(C#N)C(c2cccc(Br)c2)CC(=O)N1 (stereo unspecified)	-10%

# Brought forward from above: 3 entries, then new ones.
mol	AmpC nodet inh
CCOc1ccc(CN(Cc2ccco2)C(c2cccs2)c2nnnn2C(C)(C)C)cc1 (stereo unspecified)	25%
Cc1ccc2occ(CN3CCN(c4ccccc4)CC3)c(=O)c2c1	21%
CCSC1=C(C#N)C(c2cccc(Br)c2)CC(=O)N1 (stereo unspecified)	-10%
C=C(CC1([C@@H](NP(=O)(c2ccccc2)c2ccccc2)[C@H]2C[C@@H]2CCN(C(=O)OCC)S(=O)(=O)c2ccc(C)cc2)CC1)c1ccccc1	19%
CCOc1ccc(OCC)c(NC(=O)CN2CCN(C(=O)c3ccco3)CC2)c1	97%
Cc1ccnc(NC(=O)C2CCN(S(=O)(=O)c3cccc4nonc34)CC2)c1	4%
COc1ccc(OC)c2[nH]c(=O)c(CCNC(=O)C(C)(C)C)cc12	9%
CCOC(=O)c1c(C)c(C(=O)Nc2cc(F)ccc2F)c(C)n1C	28%
CCc1c(C(C)O)oc2ccc3c(C)cc(=O)oc3c12 (stereo unspecified)	6%
COc1ccccc1NC1C=CS(=O)(=O)C1 (stereo unspecified)	0%
Cc1ccccc1NC(=O)Cn1c(C)nc2ccc(NC(=O)C3CC3)cc2c1=O	20%
CC(C)N(C(=O)Cn1cnc2c(cnn2-c2ccccc2Cl)c1=O)C(C)C	-3%
O=C(c1ccco1)N1CCC[C@@]2(CCN(c3ncccn3)C2)C1	31%
O=C(CCC(=O)N1CCc2ccccc2C1)N1CCN(S(=O)(=O)c2ccccc2)CC1	60%
COc1cc(NC(=O)c2ccccc2)cc(OC)c1	-15%
COC(=O)c1ccc(/C(O)=C(\C#N)c2nc3ccccc3s2)cc1	-9%
COc1ccc(-c2nnc(-c3cccs3)o2)cc1OC	62%
CCOC(=O)c1c(C)n(C)c2ccc(OC(C)C(=O)OC)cc12 (stereo unspecified)	78%
NS(=O)(=O)c1ccc(N=Nc2ccc(O)c(C(=O)O)c2)cc1	-27%[5.75 µM]
CCN(CCO)C1CC(=O)N(c2ccccc2C)C1=O (stereo unspecified)	-4%
CN(C)S(=O)(=O)c1cccc(-c2nnc(SCc3ccc4c(c3)OCCO4)o2)c1	36%
CC1CCCN(C(=O)C2CCN(CC3CC=CCC3)CC2)C1 (stereo unspecified)	2%
CC(=O)N=c1cccc(NC(C)=O)n1O	-3%
O=C(Oc1cccc2ccccc12)c1ccco1	-13%
c1ccn2c(Cc3nnc4ccccn34)nnc2c1	6%
Cc1ccc(N2CC(C(=O)N3CCc4ccccc43)CC2=O)cc1 (stereo unspecified)	42%
N#C/C(=C\c1ccco1)Sc1nc2ccccc2s1	-24%
O=C(C1CCCN(S(=O)(=O)c2ccccc2)C1)N1CCN(c2ncccn2)CC1 (stereo unspecified)	50%
COC(=O)c1ccccc1NC(=O)N1CCN(C(=O)c2ccco2)CC1	20%
N#Cc1ccccc1-c1ccc2ncnc(NCCN3CCOCC3)c2c1	41%
O=C1CSC(c2ccccn2)N1c1cccc(Cl)c1 (stereo unspecified)	-1%
CSc1nc2ccccc2n1C(=O)NC1CCCCC1	18%
Cc1ccccc1NC(=O)CCN1CCN(C/C=C/c2ccccc2)CC1	92%
COc1cccc(-n2nnc3c(=O)n(CC(=O)NC4CCCC4)cnc32)c1	-9%
O=C(c1ccccn1)N1CCN(c2ccc(C(F)(F)F)cn2)CC1	36%
Cc1ccc(-c2nc3ncccn3c2NC2CCCC2)o1	33%
CCCCCCCNS(=O)(=O)c1cccc2c(Cl)cccc12	-18%
Nc1ccc(Br)cc1	-6%
COC(=O)c1ccc(NS(=O)(=O)c2ccc(OC)cc2)cc1	-14%
